Calb FLC = C. albicans growth modulation with fluconazole. C. albicans CaCi-2 (fluconazole-resistant clinical isolate) + fluconazole, Alamar Blue growth, 48 h. growth inhibition, % (no concentration beside the values). hit rate 0.57% among 300,000;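 active means most replicates above 75%; inconclusive means exactly half above 75%; inactive means most below 75%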;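 further: all wells also contain fluconazole at 8 µg/ml as a sub-toxic cotreatment; 0% = median of DMSO wells and 100% = median of geldanamycin control wells; wells of about 8 µL received 7.5 nL stock; the first replicate is given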
AF4-AF9 inh = MLL-AF4/AF9 protein interaction inhibition. inhibition, % at 10 µM. P42568. hit rate 0.47% among 350,000. AlphaScreen, biotin-AF4 peptide binding to FLAG-AF9;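 active means every replicate reaching a set inhibition limit, whatever the replicate mean, cut at about 25% in these data; inconclusive means mean inhibition reaches that limit but some replicates miss it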;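 further: 0% = plate neutral control median and 100% = total signal loss; the record names both 10 and 1 µM as test concentration; the first replicate is given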
Target sequence (P42568 whole entry, looked up): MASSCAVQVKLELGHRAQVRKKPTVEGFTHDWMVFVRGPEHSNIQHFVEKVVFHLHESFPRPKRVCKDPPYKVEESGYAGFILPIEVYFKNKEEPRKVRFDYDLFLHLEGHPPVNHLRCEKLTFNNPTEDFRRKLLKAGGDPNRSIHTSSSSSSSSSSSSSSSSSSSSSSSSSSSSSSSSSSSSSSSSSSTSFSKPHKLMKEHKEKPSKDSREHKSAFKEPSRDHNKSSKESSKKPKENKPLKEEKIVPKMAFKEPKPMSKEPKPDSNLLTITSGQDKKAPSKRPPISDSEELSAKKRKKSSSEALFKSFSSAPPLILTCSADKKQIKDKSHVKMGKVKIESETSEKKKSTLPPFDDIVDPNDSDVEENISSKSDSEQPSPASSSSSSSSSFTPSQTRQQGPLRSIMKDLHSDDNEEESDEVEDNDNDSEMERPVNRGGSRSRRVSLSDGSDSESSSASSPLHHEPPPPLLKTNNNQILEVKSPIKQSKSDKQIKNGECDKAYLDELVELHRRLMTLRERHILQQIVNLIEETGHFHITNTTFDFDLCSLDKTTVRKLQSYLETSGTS
Beta cell apopt = beta cell apoptosis inhibition. INS-1E cytokine-induced death, ATP luminescence, 48 h; percent of positive-control rescue, neutral wells zero. protection from apoptosis, % (concentration not given with the values). hit rate 0.8% among 300,000. AID 435005;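 active means all replicates at 75% or more, or half of them and the mean; inconclusive means half reach 75% but not the mean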;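 further: 0% = cytokine-treated negative control wells and 100% = positive control rescue; higher means more ATP so stronger rescue from cytokine killing; wells of about 40 µL received 100 nL stock; the first replicate is given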
RanGTP-Imp inh = inhibitors of RanGTP-importin-beta interaction, primary screen, biochemical, FRET, CFP-Ran, YFP-importin-beta, homogeneous; inhibition, % (no concentration beside the values); hit rate 1.1% among 300,000; AID 2216; cell-free CFP-Ran/YFP-importin-beta FRET ratio;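 active means most replicates above 15%; inconclusive means exactly half above 15%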;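 further: 0% = DMSO wells and 100% = Ran loaded with GDP instead of GTP; wells of about 40 µL received 100 nL stock; the first replicate is given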
Ecoli rRNA inh = inhibitors of bacterial rRNA selective over humanized ribosomes | GFP signal change (wild-type ribosome), % (concentration not given with the values) | E. coli WT GFP vs humanized-ribosome RFP mutants, fluorescence, 24 h; stronger effect = lower value; DMSO median 0, no signal -100 | hit rate 1.6% among 350,000 | AID 720706;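 active means significant combined selectivity score with lowered wild-type GFP, culture density cut under 30%, mutant RFP and density less affected; inactive means any of these conditions unmet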; further: one replicate is shown; some compounds called inactive have numbers as strong as hits
FGF22 binding = shifts melting point of recombinant human FGF22; Q9HCT0; recombinant FGF22 thermal shift, SYPRO orange fluorescence; percent of sucrose octasulfate shift, DMSO zero; calls only at 9.99 µM; hit rate 1.5% among 340,000; AID 651658;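 active means melting point raised past a set limit in the mean and every replicate; inconclusive means no clear call; three in four hits are not shown here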
Target sequence (Q9HCT0 whole entry, looked up): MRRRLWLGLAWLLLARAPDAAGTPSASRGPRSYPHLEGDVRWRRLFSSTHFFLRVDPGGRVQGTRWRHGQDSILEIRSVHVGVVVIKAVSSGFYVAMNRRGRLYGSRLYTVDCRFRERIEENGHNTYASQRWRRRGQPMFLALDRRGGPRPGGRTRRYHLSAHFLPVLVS
T cruzi repl = blocks replication of Trypanosoma cruzi. T. cruzi beta-gal in NIH3T3, luminescence, 90 h. AID 1885. hit rate 1.4% among 300,000. inhibition, % (test concentration not listed);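 active means mean inhibition across valid replicates above about 55%, limit read from the data; inconclusive means mean below that limit but half or more replicates reach it; inactive means mean below it, under half of replicates reach it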;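 further: signal also drops with host cell toxicity which is not excluded here; 0% = plate median of DMSO wells and 100% = zero luminescence signal; higher percent means less beta-gal luminescence so fewer parasites; stock transfer was 50 nL into about 50 µL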
ALR H2O2 inh = blocks human ALR sulfhydryl oxidase activity. P55789. purified ALR, DTT oxidation, H2O2 HRP-luminol luminescence. inhibition, % (no concentration beside the values). hit rate 3.8% among 290,000. AID 485317;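 active means mean and each replicate at 75% or more; inconclusive means only one of the two met; inactive means neither met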;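 further: stock transfer was 7.5 nL into about 7.5 µL; 0% = neutral wells and 100% = wells with inactivated enzyme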
Target sequence (P55789 whole entry, looked up): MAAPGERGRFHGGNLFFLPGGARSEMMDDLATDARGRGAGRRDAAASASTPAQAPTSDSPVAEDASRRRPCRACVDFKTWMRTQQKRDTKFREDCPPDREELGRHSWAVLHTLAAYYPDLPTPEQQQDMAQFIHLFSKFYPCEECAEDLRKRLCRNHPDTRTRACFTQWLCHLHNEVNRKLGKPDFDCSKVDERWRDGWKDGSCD
Ecoli rRNA inh OD600 = recorded beside Ecoli rRNA inh, whose call it bears; OD600 change, %; measured here: OD600 growth;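 optical density of the mix in the first replicate; 0 = DMSO median and -100 = no signal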
Ecoli rRNA inh RFP = recorded beside Ecoli rRNA inh, whose call it bears; RFP signal change, %; measured here: RFP humanized mutant strains;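 first replicate; 0 = DMSO median and -100 = no signal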
Numbers without * were called inactive; i = inactive; ? = inconclusive; . = not tested or not shown. Only part of the results is shown; rates above refer to the full screens.

Structure,Calb FLC,AF4-AF9 inh,Beta cell apopt,RanGTP-Imp inh,Ecoli rRNA inh,Ecoli rRNA inh OD600,Ecoli rRNA inh RFP,FGF22 binding,T cruzi repl,ALR H2O2 inh
COc1ccc(S(=O)(=O)Cc2ccc(C(=O)NCc3ccco3)o2)cc1,6,-0.3,-1,7.0,2,-7,1.9,i,4,.
COc1cc(NC(=O)c2ccc(C)c([N+](=O)[O-])c2)ccc1NC(=O)c1ccco1,2,.,-7,-1.0,.,.,.,.,2,-12
OCCCCCNc1ncnc2ccccc12,34,.,29,1.0,.,.,.,.,-40,-7
Cc1c(NC(=O)C(C)OC(=O)c2ccc(Br)o2)c(=O)n(-c2ccccc2)n1C (stereo not drawn),3,-3.9,-15,-5.2,6,-1,-1.0,i,-11,21
O=C(c1ccc2ccccc2c1)C1CCCN(C(=O)CN2C(=O)CSC2=O)C1 (stereo not drawn),-4,-8.8,4,3.0,7,1,2.6,i,4,0
COC(=O)c1sccc1NC(=O)c1c(-c2ccccc2)noc1C,-2,.,0,0.5,.,.,.,.,3,-1
CCC(c1nnc(SCC(=O)N2CC3(C)CC2CC(C)(C)C3)o1)N(C)C (stereo not drawn),19,.,-4,2.8,.,.,.,.,-12,.
Cc1ccc(-n2ncc3c2CCCC3NC(=O)CCc2cnccn2)cc1C (stereo not drawn),-3,2.1,-3,9.1,1,-1,-1.0,i,-5,5
COc1ccc(OC)c2c(C)cc(N3CCN(C(=O)c4ccc(F)cc4)CC3)nc12,-3,.,-5,2.8,.,.,.,.,25,.
COc1ccc(C2CC(C(F)(F)F)n3nc(C(=O)O)cc3N2)cc1OC (stereo not drawn),-7,.,-1,3.7,.,.,.,.,-14,-15
C=C(C)COc1ccc(-c2[nH]ncc2-c2ccc(OC)cc2)c(O)c1,0,-6.7,-9,0.3,-56,-80,-28,i,7,.
O=C1c2ccccc2C(=O)N1CCCOc1ccccc1,-5,.,-2,0.7,.,.,.,.,4,2
Cc1nc(N2CCN(C(=O)c3cnccn3)CC2)c2c3c(sc2n1)CC(C(C)(C)C)CC3 (stereo not drawn),1,-0.3,2,2.0,10,8,-0.4,i,8,.
Cn1c(=O)n(C)c2cc(NC(=O)COc3ccc(F)cc3)ccc21,1,-1.0,1,?,4,-2,0.3,i,3,33
O=S(=O)(c1ccc2c(c1)OCCO2)N1CCC(n2nnc3cc(C(F)(F)F)ccc32)CC1,-4,.,8,-2.1,.,.,.,.,12,4
CCc1nc2sc3ccccc3c(=O)c2c(=O)n1Cc1ccc(OC)cc1,-1,-1.2,.,3.0,-10,-9,4.0,i,21,.
CN(C)S(=O)(=O)c1ccc2oc(SCC(=O)c3c(N)n(C4CC4)c(=O)[nH]c3=O)nc2c1,.,0.3,5,.,11,13,-0.9,i,.,-11
Cc1ccccc1OCc1occc1C(=O)Nc1cccc(-n2cnnn2)c1,-8,-0.3,15,-0.8,-4,-21,1.5,i,8,-20
COc1ccc(CNC(=O)CCc2nc(-c3ccccc3F)no2)c(OC)c1,4,.,-5,-2.1,.,.,.,.,7,-2
Cc1cccc(OCC(=O)NNC(=O)CCCCC(=O)NNC(=O)COc2cccc(C)c2)c1,-22,-1.2,0,.,5,13,-0.6,i,.,-7
COC(=O)Cn1c(=O)c2c(nc3n2CC(C)CN3CCc2ccccc2)n(C)c1=O (stereo not drawn),0,-0.7,.,1.5,8,8,-1.3,i,-6,.
COc1ccccc1NC(=O)c1cc2c(CO)cnc(C)c2oc1=Nc1ccc(OC)c(OC)c1,-3,-3.1,36,-0.8,8,12,1.5,i,23,4
CCN(c1ccccc1C)S(=O)(=O)c1cc2c3c(c1)CCC(=O)N3CCC2,0,0.7,-2,0.6,-8,-30,-1.0,i,7,-4
COCCNC(=S)N1CCN(C(c2ccccc2)c2ccccc2)CC1,-20,-0.8,-3,5.5,-1,-4,2.1,i,4,-18
Cc1cc(N/N=C/c2ccc(O)cc2O)nc(-c2ccccc2O)n1,3,.,76*,-1.9,.,.,.,.,60*,5
O=C(/C=C/c1ccco1)Nc1nc(-c2ccccn2)cs1,?,2.4,5,0.1,4,0,2.6,i,60*,.
Cn1c(SCC(=O)Nc2cccc(S(=O)(=O)NC3=NCCCCC3)c2)nnc1-c1ccncc1,-6,-0.2,2,-1.7,16,13,1.1,i,3,0
CC(Sc1nc2ccccc2c(=O)n1CCc1ccc(S(N)(=O)=O)cc1)C(=O)NC(N)=O (stereo not drawn),6,0.4,0,5.4,-1,-1,-0.6,i,-1,3
CCCc1c(C(=O)Nc2ccc(F)cc2C)cnn1-c1ccccc1,-11,-2.6,9,0.0,-5,7,-2.0,i,-6,1
COc1ccc(NC(=O)CCN2C(=O)c3ccc([N+](=O)[O-])cc3C2=O)c(OC)c1,0,-89,-1,1.7,19,9,-0.3,i,-9,-7
Cc1cccc(-n2c(=O)[nH]c3c(C(N)=O)nc(CC(C)C)nc32)c1,-3,.,5,1.7,.,.,.,.,5,12
CN(c1ccccc1)S(=O)(=O)c1cccc(NC(=O)CSc2nnc(N)s2)c1,-30,.,23,0.9,.,.,.,.,-3,60
CCOCCCN(C(=O)c1ccco1)C(C(=O)NC1CCCC1)c1ccc(OC)cc1 (stereo not drawn),0,-2.3,.,1.5,-1,2,1.1,i,6,.
O=C(CSc1nc2ccccc2o1)Nc1ccccc1N1CCOCC1,-18,.,-7,2.6,.,.,.,.,5,1
CC(C)CN(C(=O)COC(=O)CCc1nc2ccccc2s1)c1c(N)n(Cc2ccccc2)c(=O)[nH]c1=O,3,-15,3,-1.2,9,15,1.4,i,-8,4
COc1cccc(-c2nc(CS(=O)(=O)CC(=O)Nc3ccccc3Cl)c(C)o2)c1,0,-17,-4,3.2,0,-10,0.3,i,12,87*
COc1ccccc1N1CCN(C(=O)Cn2ncc3c([nH]c4ccccc43)c2=O)CC1,18,-2.8,.,1.3,6,13,-5.0,i,0,0
Cn1c2c(c(=O)n(C)c1=O)CN(Cc1ccco1)CN2,3,.,-15,-3.8,.,.,.,.,-2,1
NC(=O)CC[C@H](NC(=O)c1ccc(F)cc1)C(=O)OCC(=O)Nc1c(F)c(F)c(F)c(F)c1F,?,2.9,-4,-0.6,3,1,5.5,i,-1,0
CCOCCCNC(=O)CCc1ccc(S(=O)(=O)Nc2ccc(C)cc2)cc1,-4,-0.4,-4,0.7,6,9,3.0,i,10,-13
O=C(NCc1ccccc1F)C1CCCN1C(=O)NCc1ccccc1 (stereo not drawn),-8,.,-5,2.7,.,.,.,.,-5,1
COc1cccc(/C=N/Nc2ccc(C(=O)O)cc2)c1O,11,-0.7,21,?,-8,-7,-4.0,.,3,-2
CC1=NNC(=O)C1C(c1ccccc1)C(C#N)C#N (stereo not drawn),10,.,-5,5.8,.,.,.,.,9,22
CCCSCCCNC(=O)Cn1nc(CC)n2c(cc3c(OC)cccc32)c1=O,-7,0.4,-6,0.0,11,18,1.5,i,-5,-5
CCOC(=O)N1CCC(NC(=O)CS(=O)Cc2nc(-c3ccc(C)cc3)oc2C)CC1 (stereo not drawn),5,-1.7,-1,-3.2,10,6,0.1,i,-7,99*
O=C1NC(=S)SC1=C1CCCCCC1,13,.,10,-1.1,-17,-20,0.0,.,-7,3
COc1ccc(/C=N/Nc2ccc([N+](=O)[O-])cc2)cc1Cn1cc([N+](=O)[O-])cn1,-12,.,4,-23,.,.,.,.,12,5
N#CCSc1ccccc1NC(=O)CN1C(=O)C(=O)N(Cc2ccccc2)C1=O,.,-3.0,-5,.,10,11,3.4,i,.,-3
CCn1c(SCC(=O)Nc2cc(C)c(Cl)cc2OC)nnc1-c1ccco1,30,.,-5,1.8,-38,-54,-9.9,.,-24,99*
O=C(NC1CCCC1)C(c1ccc(F)cc1)N(C(=O)c1csnn1)C1CCCC1 (stereo not drawn),-4,0.8,6,-2.1,2,1,-1.5,i,-21,3
Clc1ccccc1-c1nc(-c2cccnc2)no1,1,.,-1,1.2,.,.,.,.,-6,11
N#Cc1ccccc1COC(=O)CCN=C1NS(=O)(=O)c2ccccc21,.,2.5,0,.,5,3,-3.9,i,.,-1
O=c1c2ccccc2nc2sc(Nc3cccc(Cl)c3)nn12,.,4.8,12,.,7,14,0.0,i,.,-4
COc1ccc(NC(=O)CSc2nc3ccncc3[nH]2)c(OC)c1,-7,-0.3,2,0.1,7,8,1.2,i,-28,-14
CCn1cc(C(=O)N(C)Cc2ccc(OC(F)F)cc2)c(=O)c2ccc(C)nc21,-14,-2.6,1,-1.0,-6,6,1.6,i,-19,-5
Cc1cc(C(=O)Cn2nnc(-c3ccc(Cl)cc3)n2)c(C)n1CC1CCCO1 (stereo not drawn),23,.,.,0.6,-16,-14,5.0,.,23,0
O=C(Nc1nc2ccccc2[nH]1)C1CCCO1 (stereo not drawn),-14,5.0,3,3.8,11,1,-2.3,i,-11,-5
CCOc1cc(N2CCOCC2)c(OCC)cc1NC(=O)[C@H](C)NC(=O)c1ccco1,3,-1.5,-6,-6.5,4,5,1.8,i,4,4
CCCn1c(-c2ccc[nH]c2=O)nc2cc(C)c(C)cc21,0,-6.9,1,1.6,3,2,-1.3,i,-2,1
CN(Cc1ccccc1)C(=O)c1ccc(COc2ccccc2)cc1,10,0.6,2,4.8,-46,-74,-19,i,14,-5

More entries follow:
Structure,Calb FLC,AF4-AF9 inh,Beta cell apopt,RanGTP-Imp inh,Ecoli rRNA inh,Ecoli rRNA inh OD600,Ecoli rRNA inh RFP,FGF22 binding,T cruzi repl,ALR H2O2 inh
Nc1ncnc2c1C(c1ccccc1)c1c(ccc3ccccc13)O2 (stereo not drawn),.,-1.5,0,.,-8,0,-9.1,i,.,-2
CCN(CC(=O)Nc1ccc(OC)cc1)C(=O)c1cc2c(s1)CCCCC2,-19,-3.5,1,8.7,1,9,-1.2,.,-6,1
COc1ccc(N2CCN(C(=O)C3CCN(S(=O)(=O)c4ccc(C)cc4)CC3)CC2)cc1,-28,2.6,2,7.9,-20,-17,1.7,i,15,21
CSc1ncccc1C(=O)OCC(=O)N(C)C1CCS(=O)(=O)C1 (stereo not drawn),-5,.,-1,-0.2,.,.,.,.,-13,8
CCC(C)(C)NC(=O)C(c1ccc(C)o1)N(Cc1ccc2c(c1)OCO2)C(=O)c1snc(C(N)=O)c1N (stereo not drawn),3,-0.4,1,0.8,5,-11,-1.0,i,9,-2
COC(=O)c1ccc(CSc2n[nH]c(=S)s2)o1,-5,.,-13,-2.1,.,.,.,.,-11,92*

Compound activity from PubChem.
